Compound activity (PubChem)
RE007 growth inh – less growth of the S. pombe RE007 Vpr strain; Potency, µM (highest dose often 92.2 µM), for the others: at the top dose activity change, negative = less growth; AID 651644; 360,000 tested, 0.21% active; S. pombe RE007 Vpr strain, BacTiter-Glo ATP luminescence, 24 h; control for the full effect not named in the record; active = well fitted falling curve with a large enough effect; inconclusive = small, poorly fitted or top-dose-only effect; inactive = no such curve, though single readings can be large or run the other way;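 also: % is scaled to controls: 0 for no effect and ±100 for the full control effect; nearly all actives have a fitted effect of over 50% in size; the assay follows cell death caused by Vpr and the record does not say whether a fall means rescue or toxicity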
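Fission yeast RE007 carrying one integrated HIV-1 vpr copy, seeded at OD 0.01 in PMG+AL medium with 23 nL pinned compound. Grown 24 h at 30 degrees; viability read by BacTiter-Glo luminescence after 5 min.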
LASV entry inh – inhibitors of Lassa virus binding or cell entry; Lassa virus pseudotype entry inhibition, cell reporter; control for the full effect not named in the record; Potency, µM (top dose mostly 37.9 µM), without a hit: top-dose activity change, negative = inhibition, actives largely listed as inhibitors; 300,000 tested, 1.2% active; AID 540256; active means well fitted inhibition curve with a large enough effect; inconclusive means small, poorly fitted or top-dose-only effect, or effect the other way; inactive means flat fitted curve, though single readings scatter; tested in HEK293 cells; also: % is scaled to controls: 0 for no effect and ±100 for the full control effect; nearly all actives have a fitted effect of over 50% in size; luciferase read-out
2A StopGo – lowers the luciferase signal of an FMDV 2A StopGo reporter | human cells with a luciferase reporter of 2A StopGo recoding; control for the full effect not named in the record | Potency, µM (top dose mostly 57.9 µM), without a hit: at the top dose signal change, negative = less light | 410,000 tested, 1.2% active | AID 1159524; active = well fitted falling curve with a large enough effect; inconclusive = small, poorly fitted or top-dose-only effect; inactive = no such curve, though single readings can be large or run the other way; tested in HEK293T cells; also: % is scaled to controls: 0 for no effect and ±100 for the full control effect; nearly all actives have a fitted effect of over 45% in size; luciferase light after 4 h
MARV entry inh – inhibitors of Marburg virus binding or cell entry; Marburg virus pseudotyped entry inhibition, cell reporter; control for the full effect not named in the record; about a third of the inactives were read at about 46 µM; Potency, µM (titrated, usually from 37.8 µM), for the others: at the highest dose activity change, negative = inhibition, hits mostly inhibitors; 300,000 tested, 1.8% active; active = well fitted inhibition curve with a large enough effect; inconclusive = small, poorly fitted or top-dose-only effect, or effect the other way; inactive = flat fitted curve, though single readings scatter; tested in HEK293 cells; about a fifth of its hits are not listed in these tables; also: % is scaled to controls: 0 for no effect and ±100 for the full control effect; luciferase read-out
NS1 function inh – inhibitors of influenza NS1 protein function; S. cerevisiae slowed by influenza A NS1, growth recovery by OD600; 270,000 tested, 0.4% active; Potency, µM (top dose mostly 46.1 µM), without a hit: top-dose activity, positive = more growth; active means well fitted rising curve with a large enough effect; inconclusive means small, poorly fitted or top-dose-only effect; inactive means no such curve, though single readings can be large or run the other way; also: nearly all actives have a fitted effect of over 50% in size
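OD600 was taken as the measure of yeast growth restored by compound in an NS1-expressing S. cerevisiae strain. Cells had been washed out of glucose medium and diluted 1:100 into galactose -URA medium, pH 6.0.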
Cruzain inh noDet – cruzain (T. cruzi) inhibition without detergent; purified cruzain, Z-FR-AMC fluorescence, no detergent; Potency, µM, for inactives: max response, negative = inhibition, most hits filed as inhibitors; 200,000 tested, 2.3% active; AID 1476;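 also: plate controls were enzyme without inhibitor for no effect and buffer without enzyme for full effect; nearly all actives have a fitted effect of over 40% in size; top concentration of the series not given in the record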
Target sequence (P25779 123-467 limits assumed): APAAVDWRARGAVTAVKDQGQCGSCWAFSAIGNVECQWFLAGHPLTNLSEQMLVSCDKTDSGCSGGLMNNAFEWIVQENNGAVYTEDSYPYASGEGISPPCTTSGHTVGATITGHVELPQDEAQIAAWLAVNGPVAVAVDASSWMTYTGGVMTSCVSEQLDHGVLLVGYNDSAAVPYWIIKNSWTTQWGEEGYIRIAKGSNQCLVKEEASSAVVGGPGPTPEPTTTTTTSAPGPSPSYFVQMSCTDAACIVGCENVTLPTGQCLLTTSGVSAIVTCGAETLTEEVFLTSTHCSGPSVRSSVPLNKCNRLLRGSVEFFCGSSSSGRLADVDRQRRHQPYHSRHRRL
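Detergent-free condition (0.00005% Triton X-100) in acetate buffer pH 5.5 with DTT. 1.5 nM enzyme and compound were pre-mixed 15 min, then 2 uM Z-FR-AMC substrate added; reaction progress from fluorescence change between first and third reads (60 s).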
SARS PLP yeast – blocks SARS-CoV papain-like protease in a yeast assay; S. cerevisiae expressing SARS-CoV PLpro, growth rescue; control for the full effect not named in the record; Potency, µM (highest dose often 32.9 µM), for the others: at the top dose activity, positive = growth rescue; 330,000 tested, 0.19% active; AID 485353; active means well fitted rising curve with a large enough effect; inconclusive means small, poorly fitted or top-dose-only effect; inactive means no such curve, though single readings can be large or run the other way; also: 0% is about no effect; nearly all actives have a fitted effect of over 55% in size; growth read by luminescence after 48 h
Cruzain inh Det – inhibitors of Trypanosoma cruzi cruzain with detergent | purified cruzain, Z-FR-AMC fluorescence, 0.01% Triton | 200,000 tested, 0.43% active | Potency, µM, for inactives: max response, negative = inhibition, actives largely listed as inhibitors | AID 1478;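 also: plate controls were neutral wells for no effect and buffer without enzyme for full effect; nearly all actives have a fitted effect of over 40% in size; top concentration of the series not given in the record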
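15 min RT preincubation of 1.5 nM cruzain with compound, then 2 uM Z-FR-AMC added; kinetic AMC fluorescence, 60 s delta. Triton X-100 0.01%, pH 5.5.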
* marks the source's active call; other numbers are inactive results; ? = inconclusive; nt = not tested or not shown; & = joins results of further samples; [ ] = another dose, or the depositor's remark. Unless noted, calls follow the shape of the dose curve; as a rule, active = well fitted curve in the direction sought with a large enough effect; inconclusive = small, poorly fitted or top-dose-only effect, or another doubt; inactive = no such curve, though single readings can be large; an effect the other way counts as inactive or inconclusive. Potency is read from the fitted curve at half-maximal effect.

SMILES | RE007 growth inh | LASV entry inh | 2A StopGo | MARV entry inh | NS1 function inh | Cruzain inh noDet | SARS PLP yeast | Cruzain inh Det
O=[N+]([O-])/C=C/c1cn(Cc2ccc(F)cc2)c2ccccc12 | 12% | ? | ? | 7.3µM* | -84% | 2% | -30% | 1.2%
Cc1ccc2c(CC(=O)N(CC3CCCO3)c3c(N)n(Cc4ccccc4)c(=O)[nH]c3=O)coc2c1 (stereo unspecified) | 5% | 0% | 17% | ? | nt | nt | -2% | nt
C[N+]1(C)CCCC(OC(=O)C(O)(c2ccccc2)c2ccccc2)C1 (stereo unspecified) | 2% | nt | -21%&-6% | nt | nt | -2% | nt | 1.4%
COc1ccc(C2C(=O)N(C3CCCCCC3)CC(=O)N2Cc2ccc(C)cc2)cc1 (stereo unspecified) | nt | ? | -20% | nt | nt | 2% | nt | 1.3%
CCOC(=O)Cc1nn2c(=O)cc(C)nc2s1 | 5% | -7% | -23% | 0% | 12% | -17% | 1% | 2.6%
COc1ccc(-n2nc(C(=O)NCC(=O)Nc3cccc(Cl)c3)c3ccccc3c2=O)cc1OC | 1% | nt | ? | ? | 23% | nt | 1% | nt
COc1ccc(CNC(=O)C2CCN(S(=O)(=O)N3CCCC3)CC2)cc1 | 0% | nt | -23% | nt | 10% | nt | -4% | nt
COCC(=O)OCC(=O)N1N=C(c2ccc(Cl)cc2)CC1c1ccco1 (stereo unspecified) | -2% | 14% | -8% | -25%[46.1 µM] | nt | nt | -5% | nt
COc1ccccc1N1CCN(S(=O)(=O)c2c(C)nc3sccn3c2=O)CC1 | nt | 5%[46.1 µM] | -1% | nt | nt | 11% | nt | 0.8%
COc1ccc(NC(=O)COC(=O)CNC(=O)COc2ccccc2)cc1OC | 8% | 6% | -7% | 15% | nt | nt | 2% | nt
Cc1ccc(S(=O)(=O)CCC(=O)OCC(=O)NCCc2ccccc2)cc1 | 9% | 28% | -14% | 14%[46.1 µM] | nt | nt | 1% | nt
Cc1c(C(=O)Nc2cccc([N+](=O)[O-])c2)sc2ncn(CC(=O)N3CCOCC3)c(=O)c12 | 0% | 16%[46.1 µM] | -5% | -6%[46.1 µM] | -13% | nt | 4% | nt
Cc1cc(C)c2nc(NC(=O)c3ccc(S(=O)(=O)N4CCCC4)cc3)sc2c1 | nt | -5%[46.1 µM] | -18% | nt | nt | ? | nt | 2.8%
COCC(C)n1c(SC(C)C(=O)NC2CCCCC2C)nc2ccccc2c1=O (stereo unspecified) | 2% | -3% | -20% | -22% | 4% | nt | -3% | nt
CN1CCN(C(=S)NC(=O)c2ccc(Cl)cc2)CC1 | 5% | ? | 30% | 6%[46.1 µM] | 0% | nt | -1% | nt
CCCCNC(=O)C1(O)c2cc(Br)ccc2NC(=O)N1c1cccc(OC)c1 (stereo unspecified) | -7% | 13%[46.1 µM] | -14% | -28%[46.1 µM] | 8% | nt | -1% | nt
COc1cccc(NC(=O)Nc2cc(-c3cn4cccnc4n3)ccc2C)c1 | nt | ? | 14% | 11%[46.1 µM] | nt | 1% | nt | -1.5%
COc1ccccc1CN(C)C(=O)COC(=O)c1ccc(Cl)nc1 | -8% | 12%[46.1 µM] | -2% | 1%[46.1 µM] | nt | nt | -5% | nt
COc1ccc(C2=NS(=O)(=O)N(C)C(C(=O)NCc3ccco3)=C2)cc1OC | -8% | nt | -2% | nt | 19% | nt | -3% | nt
COc1ccc(CNCCc2c[nH]c3ccccc23)c(OC)c1C | 8% | ? | ? | ? | -1% | nt | -2% | nt
COc1ccc(C(=O)Nc2sc(C(=O)N(C)C)c(C)c2C#N)cc1[N+](=O)[O-] | -5% | ? | ? | -10% | 16% | -12% | 21% | -6.8%
Cc1cn2c(N)c(C=C3C=C(Cl)C(=O)C(Cl)=C3)c(=O)nc2s1 | 15% | 2% | -9% | 2%[46.1 µM] | 0% | nt | 0% | nt
Cc1c(CNC2CCCCC2)c(C(=O)O)c(C)n1Cc1c(F)cccc1Cl | nt | 2%[46.1 µM] | -15% | 3%[46.1 µM] | nt | 15% | nt | -1.2%
COc1ccc(NC(=O)CSc2nnc(-c3cccs3)o2)cc1 | nt | 21%[46.1 µM] | -14% | ? | nt | 4% | nt | 0.3%
O=C(Cn1nnc2ccccc2c1=O)NCc1ccco1 | 3% | 3% | -10% | -4% | 5% | -5% | 8% | -0.7%
CC1Cc2ccccc2N1C(=S)NC(=O)c1ccco1 (stereo unspecified) | 3% | 1% | -8% | ? | nt | nt | -1% | nt
COc1ccccc1C1/C(=C(/O)c2ccc(C)cc2)C(=O)C(=O)N1CCN1CCOCC1 (stereo unspecified) | -1% | -11% | -19% | 15% | 8% | 3% | ? | -4.1%
CCc1ccc(NC(=O)C(=O)NCCc2sc(-c3ccc(C)cc3)nc2C)cc1 | nt | nt | -5% | nt | nt | -7% | nt | -1.7%
Cc1cccc(CNC(=O)c2oc3c(c2C)-c2nn(Cc4cccc(Cl)c4)cc2CC3)c1 | nt | -23%[46.1 µM] | -20% | nt | nt | 16% | nt | -12%
COC(=O)c1ccc(/C=N/Nc2nc(-c3ccc(C)cc3)cs2)cc1 | -15% | 6% | -1% | ? | -19% | 13µM* | 29% | -11%
O=C1N=c2ccccc2=C1c1sc(NS(=O)(=O)c2ccccc2)nc1O | -17% | 4%[46.1 µM] | -12% | 16%[46.1 µM] | nt | nt | 1% | nt
O=c1cc([O-])[n+]2c3n1CCCN3CCC2 | -14% | -13% | -25% | ? | 21% | 7% | 10% | -0.9%
Clc1cc(Cl)c(OCCCCn2cncn2)c(Cl)c1 | -7% | nt | -14% | nt | -52% | nt | -10% | nt
O=C1CC(c2ccc(F)cc2)Cc2nc(NCc3ccco3)ncc21 (stereo unspecified) | 10% | -8% | -21% | 26%[46.1 µM] | 11% | -9% | 2% | -0.3%
COc1cccc(CNC(=O)CCCc2nnc3n(C)c(=O)c4sccc4n23)c1 | -24% | nt | -11% | nt | -1% | nt | -1% | nt
CSc1ncccc1C(=O)OCC(=O)N1CCc2ccccc21 | -15% | 0% | 18% | 0% | nt | nt | -13% | nt
C=CCOC(=O)C1=C[C@H](c2ccc(C(F)(F)F)cc2)[C@@H](CCCO)[C@H](OCC)O1 | 6% | nt | -26% | nt | 2% | nt | -1% | nt
O=C(CCSCc1ccccc1F)N1CCN(c2ccc(Cl)cc2)CC1 | nt | -18%[46.1 µM] | -26% | nt | nt | 3% | nt | 0.6%
COC1=C(NCc2ccc3c(c2)OCO3)C(=O)C(OC)=C(NCc2ccc3c(c2)OCO3)C1=O | 10% | 7% | -14% | ? | nt | nt | nt | nt
CC(=O)NCCn1c(SCC(=O)NC2CCCCC2)nc2ccccc2c1=O | -9% | 3% | -10% | ? | nt | nt | 1% | nt
C=CCOc1ccc(C2CC(C)=NN2c2ccccc2)cc1 (stereo unspecified) | 6% | -14% | 2% | 4% | 2% | -1% | -44% | -5.7%
CC(C)n1cnc2c(Nc3ccc(F)c(Cl)c3)nc(NCCO)nc21 | -6% | nt | 14% | nt | 5% | nt | -5% | nt
O=C(CNC(=O)c1ccco1)Nc1ccc(Cl)cc1 | 27% | ? | 75%[activator] | ? | 2% | nt | 2% | nt
FC(F)(F)c1ccc(Cl)c(NC(=S)N/N=C/c2ccccc2Cl)c1 | 6% | nt | 3% | nt | 0% | nt | -3% | nt
CCN(C(=O)c1ccc2c(SCC(=O)O)c3c(nc2c1)CCC3)c1cc(Cl)ccc1OC | -5% | nt | 0% | nt | 21% | nt | 10% | nt
O=C(C1=C[C@H](C2CCCCC2)C[C@H](OCc2ccc(CO)cc2)O1)N1CCOCC1 | 13% | nt | 6% | nt | -4% | nt | 0% | nt
O=C(O)C1CCCCC1C(=O)NCc1ccc(F)cc1 (stereo unspecified) | 4% | 7% | 0% | 0% | 0% | 8% | 0% | 3.3%
COc1cc(C(=O)NC(=S)Nc2ccc(Cc3ccncc3)cc2)cc(OC)c1OC | -1% | nt | -17% | nt | 7% | nt | -2% | nt
O=C(NNC1=NCCC1)c1cccc(S(=O)(=O)N2CCCCC2)c1 | 6% | nt | -8% | 4% | 10% | 7% | -14% | -1.0%
Cc1noc(C)c1COc1ccc(CC(=O)NCCc2ccccc2)cc1 | 27% | 2% | -2% | 6%[46.1 µM] | nt | nt | -6% | nt
CCOC(=O)c1sc(SC)c(C(C)=O)c1C | ? | -1% | -1% | -1% | -22% | -5% | 1% | -0.3%
Cc1nc(NC(C)c2ccccc2)sc1C(=O)Nc1ccccc1 (stereo unspecified) | 22% | ? | 0% | -33% | nt | nt | -1% | nt
COc1cc(NC(=O)c2ccco2)c(OC)cc1NC(=O)CSc1ncc(-c2ccc(F)cc2)[nH]1 | -17% | ? | ? | 0%&-12% | -23% | 24% | -5% | 0.6%
Cc1nn(-c2ccccc2)cc1/C=N/NS(=O)(=O)c1ccccc1 | -13% | 10% | 43%[activator] | 3%[46.1 µM] | -26% | -6% | -10% | -5.8%
O=C(Cn1ncc2c1-c1ccccc1OC2)N1CCN(Cc2ccccc2)CC1 | -7% | ? | ? | -9%[46.1 µM] | -2% | nt | 1% | nt
O=C(CN1CCN(Cc2cccc3ccccc23)CC1)NCCc1ccccc1 | -1% | -8%[46.1 µM] | -10% | ? | 4% | nt | -3% | nt
CC(C)C(=O)Nc1ccc(C(=O)NNC(=O)c2ccco2)cc1 | 3% | -3% | 11% | 2% | 8% | -2% | 2% | 5.8%
CCCCOC(=O)c1ccc(NC(=O)c2nn(C)cc2Br)cc1 | -14% | 8% | -4% | 7% | 4% | ? | -53% | -11%
CCOC(=O)C(O)(CC(=O)Nc1ccc(Cl)cc1Cl)C(F)(F)F (stereo unspecified) | 9% | 12% | 18% | ? | -4% | 0% | 0% | -2.0%
Cc1ccc(C(C)C)c(OCC(=O)Nc2ccc3c(c2)nc(CCN2CCCCC2)n3C)c1 | -6% | nt | -20% | nt | -7% | nt | 0% | nt

The order is random; about 4.7% have a hit in one of these screens.
